High-throughput results as filed in PubChem BioAssay.
B2AR ag – beta2AR agonists driving receptor internalization, primary screen, cell-based, FAP fluorogen, flow cytometry; Beta-2 adrenergic receptor (Homo sapiens), P07550; Am2.2-beta2AR cells; reference of the scale not given here; response, % (test concentration not listed); 340,000 compounds, 0.43% hits;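 active = response above a set limit, near 3 SD of response in nonfluorescent compounds, cut at about 42% in these data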;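 note: stock transfer was 100 nL into about 11 µL; a reference agonist was the positive control; negative values mostly stem from fluorescent compounds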
Target sequence (P07550 whole entry, looked up): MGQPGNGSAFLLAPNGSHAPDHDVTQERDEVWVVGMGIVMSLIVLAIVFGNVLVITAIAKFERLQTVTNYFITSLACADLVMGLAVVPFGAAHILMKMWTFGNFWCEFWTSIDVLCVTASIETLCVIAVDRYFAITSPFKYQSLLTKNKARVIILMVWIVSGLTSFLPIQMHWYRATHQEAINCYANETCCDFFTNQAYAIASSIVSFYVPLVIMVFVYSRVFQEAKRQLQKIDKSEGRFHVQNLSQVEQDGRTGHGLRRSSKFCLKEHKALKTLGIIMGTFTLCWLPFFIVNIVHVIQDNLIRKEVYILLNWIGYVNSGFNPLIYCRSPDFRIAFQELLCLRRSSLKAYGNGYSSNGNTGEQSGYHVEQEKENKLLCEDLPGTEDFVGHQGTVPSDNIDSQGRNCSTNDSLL
Beta apoptosis – inhibitors of cytokine-induced beta cell apoptosis, primary screen, luminescence. INS-1E cytokine-induced death, ATP luminescence, 48 h; percent of positive-control rescue, neutral wells zero. protection from apoptosis, % (test concentration not listed). 300,000 compounds, 0.8% hits;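 active = all replicates at 75% or more, or half of them and the mean; inconclusive = half reach 75% but not the mean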;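 note: 0% = cytokine-treated negative control wells and 100% = positive control rescue; higher means more ATP so stronger rescue from cytokine killing; wells of about 40 µL received 100 nL stock; the first replicate is given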
UCH37 DUB inh – inhibitors of human UCH37 deubiquitinase, primary screen, biochemical, Ub-AMC cleavage, fluorescence. purified proteasome/UCH37. inhibition, % (test concentration not listed). 330,000 compounds, 0.33% hits. Ubiquitin carboxyl-terminal hydrolase isozyme L5 (Homo sapiens), Q9Y5K5;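 active = mean of two replicates above 20%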;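 note: 0% = compound-free wells with enzyme and 100% = wells lacking proteasome; stock transfer was 100 nL into about 20 µL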
Target sequence (Q9Y5K5 whole entry, looked up): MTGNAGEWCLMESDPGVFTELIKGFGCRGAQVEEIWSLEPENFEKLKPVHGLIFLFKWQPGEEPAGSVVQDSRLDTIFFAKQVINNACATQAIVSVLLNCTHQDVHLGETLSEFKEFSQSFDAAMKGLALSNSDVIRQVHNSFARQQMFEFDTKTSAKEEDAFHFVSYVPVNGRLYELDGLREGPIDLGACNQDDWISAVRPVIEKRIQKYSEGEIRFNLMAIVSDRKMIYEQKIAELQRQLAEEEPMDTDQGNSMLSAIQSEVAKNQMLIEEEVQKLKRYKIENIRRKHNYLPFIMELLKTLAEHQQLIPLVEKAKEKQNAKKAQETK
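Assay system: Proteasome-bound UCH37. Buffer or medium: pH 7.4 Tris-HCl (50 mM) with ovalbumin, ATP-MgCl2, DTT. Incubation: 30 min preincubation with enzyme, 25 min cleavage at room temperature. Measured by: fluorescence, ex 355 nm, em 460 nm. Read-out basis: percent inhibition. Control set: wells without proteasome as full block, compound-free enzyme plus substrate as uninhibited.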
RanGTP-Imp inh – inhibitors of RanGTP-importin-beta interaction, primary screen, biochemical, FRET, CFP-Ran, YFP-importin-beta, homogeneous; Ran GTPase (GTP-bound) - importin-beta complex; cell-free CFP-Ran/YFP-importin-beta FRET ratio; inhibition, % (concentration not given with the values); 300,000 compounds, 1.1% hits; AID 2216, 2009;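 active = most replicates above 15%; inconclusive = exactly half above 15%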;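 note: 0% = DMSO wells and 100% = Ran loaded with GDP instead of GTP; wells of about 40 µL received 100 nL stock; the first replicate is given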
Bfl-1 A1 inh – caspase 3/7 activation in MEF A1-2A-BIM cells, primary screen, A1 inhibitor project, cell-based, luminescence, HTS; Caspase-Glo 3/7 luminescence, 3 h; percent of clofoctol response, vehicle zero; caspase activation, % (concentration not given with the values); 330,000 compounds, 0.066% hits; AID 2462, 2010;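 active = over half of replicate activation scores above 10%, or exactly half above 10 with the replicate mean above 10; inconclusive = replicate mean below 10 yet half the replicates above 10; inactive = over half of replicates below 10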;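 note: wells of about 30 µL received 50 nL stock; many hits fall short of the cut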
LANA-H2B inh – blockers of LANA interaction with H2A/H2B – biochemical, FP readout, HTS, primary screen; Protein LANA1 (Human herpesvirus 8 type P (isolate GK18)), Q9QR71; cell-free LANA-H2A/H2B peptide, fluorescence polarization; inhibition, % (test concentration not listed); 320,000 compounds, 0.6% hits; AID 2629, 2010; in the data active = inhibition mostly above about 10%, no sharp cut-off; inactive = mostly below about 6.7%;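 note: stock transfer was 7.5 nL into about 10 µL; 0% = median of vehicle wells and 100% = median of positive control wells; one replicate is shown; the record names a cut of 25% in any replicate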
T cruzi inh – inhibitors of intracellular T. cruzi growth, primary screen, luminescence, NIH3T3 host cells | inhibition, % (no concentration beside the values) | 300,000 compounds, 1.4% hits | T. cruzi beta-gal in NIH3T3, 90 h;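 active = mean inhibition across valid replicates above about 55%, limit read from the data; inconclusive = mean below that limit but half or more replicates reach it; inactive = mean below it, under half of replicates reach it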;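 note: signal also drops with host cell toxicity which is not excluded here; 0% = plate median of DMSO wells and 100% = zero luminescence signal; higher percent means less beta-gal luminescence so fewer parasites; stock transfer was 50 nL into about 50 µL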
Calb FLC – C. albicans growth inhibition with fluconazole, primary screen, CaCi-2 strain, Alamar Blue fluorescence; C. albicans CaCi-2 (fluconazole-resistant clinical isolate) + fluconazole, 48 h; growth inhibition, % (concentration not given with the values); 300,000 compounds, 0.57% hits; AID 1979, 2009;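 active = most replicates above 75%; inconclusive = exactly half above 75%; inactive = most below 75%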;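 note: all wells also contain fluconazole at 8 µg/ml as a sub-toxic cotreatment; 0% = median of DMSO wells and 100% = median of geldanamycin control wells; wells of about 8 µL received 7.5 nL stock; the first replicate is given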
An asterisk follows results filed as active; i = inactive; ? = inconclusive; / = not tested or not shown.

No.	SMILES	Calb FLC	B2AR ag	UCH37 DUB inh	RanGTP-Imp inh	Bfl-1 A1 inh	LANA-H2B inh	T cruzi inh	Beta apoptosis
1	NC(=O)Cn1c(=O)n(CCC(=O)NCCSCc2ccccc2)c(=O)c2ccccc21	-17.8	-8.6	0.8	-1.8	0.0	0.0	-5.3	-1.1
2	COc1ccc(S(=O)(=O)N(C(=O)c2ccncc2)c2ccc(OC(=O)c3ccncc3)cc2)cc1	4.0	-0.2	0.4	1.3	1.7	3.3	1.8	-7.5
3	COC(=O)CC1COc2ccccc2N1S(=O)(=O)c1ccc(OC)cc1 (configuration not stated)	-1.3	7.7	4.3	-3.3	-0.2	3.7	6.8	1.7
4	Cc1cccn2c(=O)c(/C=N/O)c(NCc3ccccc3)nc12	3.9	-2.4	/	?	-0.9	4.6	16.8	-14.3
5	CCn1cc(C(=O)NCc2cccnc2)c(=O)c2cc(F)c(N3CCN(C(=O)c4ccco4)CC3)cc21	20.7	2.0	-108.2	5.4	0.6	-0.6	-1.3	14.1
6	COc1cc(/C=C2\N=C(c3ccccc3)NNC2=O)cc(OC)c1OC	-4.2	8.4	11.4	-1.4	1.0	-0.2	-16.8	/
7	Cc1cc(N2C(=O)C3CC=CCC3C2=O)cc(C)c1Br (configuration not stated)	19.4	-7.0	-2.2	7.1	0.7	0.9	-8.9	3.4
8	Cc1ccc(C2(c3ccc(C)cc3)NC(=O)N(Cc3c(C)noc3C)C2=O)cc1	?	5.5	2.6	-0.4	0.8	-6.1	/	5.4
9	Cc1c(OC(C)C(=O)NCC2CCC(C(=O)O)CC2)ccc2c(-c3ccccc3)cc(=O)oc12 (configuration not stated)	13.1	-4.7	0.3	-1.9	-0.3	-4.5	3.3	4.6
10	O=C(CN(Cc1ccccc1)S(=O)(=O)c1ccccc1)N1CCOCC1	0.4	-2.9	3.3	1.4	0.8	1.4	3.0	-10.9
11	CS(=O)(=O)N(CC(=O)NCc1ccco1)c1cc(C(F)(F)F)ccc1Cl	-2.2	-6.4	1.6	?	0.3	5.0	-11.7	-0.4
12	COC(=O)c1sccc1NC(=O)CCC1CCCC1	-8.2	5.0	-0.6	3.5	0.6	-0.8	-19.6	1.3
13	CN(C)CCCn1c(N)c(C#N)c2nc3ccccc3nc21	-1.2	-13.8	i	61.4*	0.1	1.6	-7.7	2.1
14	O=C1N(Cc2cccnc2)C[C@@H]2C[C@@H](c3cccc(Oc4ccccc4)c3)N3CCC[C@@]123	-7.8	-3.9	1.2	?	-0.9	-1.1	36.4	-4.3
15	COc1ccc(-c2n[nH]c(C)c2-c2ccc(Cl)cc2)c(O)c1	-3.5	2.3	1.4	0.6	-0.2	-0.3	-17.8	17.8
16	Cn1c2ccccc2c2cc(/C=N/NC(=O)c3cc(O)cc(O)c3)ccc21	-9.5	5.5	/	-4.6	2.7	4.8	-9.5	15.1
17	CC(Oc1ccccc1)c1ccnc2nc(N3CCOCC3)nn12 (configuration not stated)	-18.3	-9.6	-82.9	-1.8	1.3	1.8	-4.8	-1.2
18	CCCCCCCCCc1nc2sc3c(c2c(=O)n1NC(=O)c1ccc([N+](=O)[O-])cc1)CC(C)(C)OC3	3.3	16.2	4.2	0.7	0.2	-3.0	-6.4	-0.1
19	COc1cc(NC(=O)CSc2nnc3c(n2)[nH]c2ccc(S(=O)(=O)NC(C)C)cc23)cc(OC)c1OC	9.1	0.9	6.6	-3.8	0.8	1.1	-10.4	1.9
20	CCCNC(=O)c1cccc(Br)c1	-17.4	3.0	0.6	-1.8	2.1	0.4	-13.1	-4.6
21	O=c1nc2ccccc2c2n1CC(CN1CCN(c3ccc(F)cc3)CC1)N2 (configuration not stated)	-3.6	-2.3	5.2	-3.9	0.1	-0.5	-2.2	4.2
22	Cc1cc(C)cc(OCC(O)CN2CC(C)OC(C)C2)c1 (configuration not stated)	3.4	-4.3	0.5	0.5	-0.8	2.5	7.2	-2.3
23	CC(C)COc1nc2ccccc2c(=O)n1OCC(=O)O	-0.4	9.0	1.4	-3.1	1.3	1.1	6.4	-18.1
24	O=C(COC(=O)c1cccc(C(F)(F)F)c1)NCc1ccc(Cl)cc1	-5.1	-7.9	-1.0	-2.7	0.6	0.7	2.0	-1.1
25	Cn1c(=O)c(C(=O)NNC(=O)c2ccc(Br)cc2)c(O)c2ccccc21	0.1	-3.3	0.9	?	0.4	-6.7	-9.6	5.8
26	O=Cc1cnc(N2CCN(Cc3ccccc3)CC2)s1	23.8	2.4	13.3	-2.7	0.5	-2.0	-2.6	-0.9
27	CC(=O)Nc1ccc(NC(=O)COC(=O)c2ccccc2SCC(=O)N2CCCC2)cc1	1.8	-9.7	-3.8	8.4	-0.1	-10.5	-2.7	-2.1
28	O=C1c2cccc3cccc(c23)C(=O)N1c1ccccc1Cl	2.4	-2.4	-49.0	-3.3	0.1	-2.2	-19.5	-4.4
29	CN(CC(=O)NC1CCN(Cc2ccccc2)CC1)S(=O)(=O)c1ccc2c(c1)c(=O)n(C)c(=O)n2C	5.3	-6.0	3.0	-1.1	-0.8	2.0	7.5	0.5
30	O=C(Nc1ccccc1Cl)c1ccc2ccccc2c1	-7.1	9.2	5.4	0.8	0.3	-7.9	-1.6	-6.2
31	CCOC(=O)/C=C1\CC(=O)Nc2cc(C)c(C)cc2N1	17.0	3.2	-18.2	?	0.3	-4.3	-0.1	7.7
32	C=C(C)C1CC=C(C)/C(=N/NC(=O)COc2ccccc2Cl)C1 (configuration not stated)	-1.1	-8.4	/	4.8	-0.1	2.7	6.2	-3.8
33	Cc1ccc(N=Nc2c(O)[nH]c3ccc(F)cc23)cc1	6.4	30.8	0.5	1.1	0.2	-0.3	21.9	0.7
34	CCOc1ccc(-c2c(C(=O)N/N=C/c3ccc(C)o3)nnn2-c2nonc2N)cc1	-7.0	-5.9	/	7.7	-0.4	2.8	18.2	-2.4
35	CN1CCN(c2nc(-c3ccccc3)nc(-c3ccc(F)cc3)c2C#N)CC1	16.2	-3.8	0.6	0.2	0.2	2.2	55.5*	10.5
36	CCSc1nc2sc3c(c2c(=O)n1-c1ccc(OC)cc1)CCN(C)C3	-3.7	2.3	8.6	-9.6	0.0	-6.3	41.2	0.9
37	COc1ccccc1-c1nnc(SCC(=O)c2c(N)n(C3CC3)c(=O)[nH]c2=O)n1C	/	-0.4	-1.2	/	0.8	4.3	/	-2.5
38	COC(=O)Cn1cc(C(=O)C2CC2)c2ccccc21	/	14.0	1.2	/	3.6	12.4	/	2.9
39	CCC(=O)OC1CC(C)N(C(=O)c2ccccc2)c2ccc(C)cc21 (configuration not stated)	-3.8	-6.6	-7.3	-5.0	-0.2	-2.2	-3.8	1.8
40	COC(=O)c1ccc2c(c1)C(=O)N(C1CCCCC1)C2=O	18.1	10.8	0.3	2.7	-0.3	2.0	7.1	-6.0
41	Cc1ccc(-c2cc3nc(-c4ccccc4)cc(N4CCOCC4)n3n2)cc1	8.9	-5.7	-142.7	?	/	/	31.6	/
42	CCOC(=O)c1c(C)[nH]c(C)c1C(=O)COC(=O)/C=C/c1ccc(Cl)cc1	-3.6	-3.5	0.2	-2.7	-0.1	-0.8	12.4	0.4
43	CC(C)(C)c1ccc(C(=O)N2CCN(c3ccc(N4CCOCC4)nn3)CC2)cc1	-4.8	-6.7	-152.2	2.1	0.8	-0.6	-17.1	/
44	COc1cccc(CC(=O)OC(C)C(=O)Nc2ncc(Cl)cc2Cl)c1 (configuration not stated)	-2.6	-3.4	2.4	0.2	0.0	-6.8	-7.2	-0.4
45	COc1ccccc1NC(=S)N(Cc1cccs1)C1CCCC1	2.4	5.0	0.8	-1.9	?	-2.1	6.0	-0.3
46	CC(C)c1ccc(C2/C(=C(/O)c3ccc(F)cc3)C(=O)C(=O)N2CCCN2CCOCC2)cc1 (configuration not stated)	-11.6	0.5	7.4	9.6	0.8	-0.7	-18.0	-5.0
47	C=CCNc1ncnc2ccccc12	-3.0	-1.1	0.0	5.4	0.1	2.0	-15.9	/
48	Cc1cc2ccccn2c1C(=O)c1ccc([N+](=O)[O-])cc1[N+](=O)[O-]	1.0	-1.7	2.4	1.2	0.0	1.9	50.9	-4.6
49	COc1ccc(N2CCN(C(=O)c3ccc(N4C(=O)NC5CC4(C)Oc4ccccc45)cc3)CC2)cc1 (configuration not stated)	9.0	3.4	2.8	0.2	0.5	3.6	-4.5	6.4
50	CC1=C(C(=O)N2CCCCC2)C(c2cccs2)NC(=O)N1 (configuration not stated)	-6.4	2.4	-1.1	-1.7	-0.3	1.7	-7.2	-4.4
51	COCc1ccc(CN2CCCC(CO)(Cc3ccccc3)C2)o1 (configuration not stated)	-2.2	0.7	2.6	-2.4	-0.3	-0.1	6.9	-7.2
52	CSc1ccccc1NC(=O)CN(C)C(=O)/C=C/c1ccccc1	/	-8.3	0.5	/	-0.1	1.3	/	-1.7
53	CCOCCCNC(=O)C(Cc1ccccc1)NC(=O)c1ccco1 (configuration not stated)	-12.2	-3.1	4.3	4.3	0.0	4.8	-11.1	2.5
54	CCc1ccccc1Nc1nc(-c2cccnc2)cs1	7.5	-6.3	2.0	3.1	0.5	-7.1	-1.4	-8.8
55	COC(=O)CSc1nnc2cc(C)c3ccccc3n12	-2.1	-2.4	4.3	-0.1	2.0	6.6	0.4	0.4
56	O=C(NC1CC1)C1CCN(S(=O)(=O)c2ccc(Cl)c([N+](=O)[O-])c2)CC1	/	18.2	5.0	/	0.5	2.5	/	-2.5

The listing continues:
No.	SMILES	Calb FLC	B2AR ag	UCH37 DUB inh	RanGTP-Imp inh	Bfl-1 A1 inh	LANA-H2B inh	T cruzi inh	Beta apoptosis
57	CCOc1ccc(NC(=O)C2CCC(CNc3c(N4CCOCC4)c(=O)c3=O)CC2)cc1 (configuration not stated)	2.1	-1.7	7.1	-3.9	-0.4	-0.3	-5.8	-7.3
58	c1ccc(Oc2nc(Oc3ccccc3)nc(N3CCOCC3)n2)cc1	-5.2	-9.4	2.8	0.0	-3.2	-0.4	0.4	-3.4
59	COc1ccc2[nH]c(C)c(CCN(Cc3cccs3)C(=S)Nc3ccc(F)cc3)c2c1	0.2	6.5	3.7	-277.1	-0.1	11.3	54.9*	19.4
60	COc1ccc(Cc2nc3ccc(C(=O)N(C)CCCN4CCOCC4)cc3o2)cc1	5.5	-3.9	2.2	1.1	1.4	-3.6	10.3	/
61	Cc1ccc(-c2n[nH]c3c2C(c2cccc(O)c2)N(c2ccc(C(=O)O)cc2)C3=O)cc1 (configuration not stated)	9.9	-9.8	5.4	-2.5	0.2	-1.5	-0.3	-3.7
